# BJeLR viability: kills HRASV12-expressing BJeLR cells; inhibition, % (no concentration beside the values); 300,000 tested, 0.17% active; BJeLR (HRASV12) viability, CellTiter-Glo ATP luminescence, 48 h; reference of the scale not given here;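 active means replicate mean above 50%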;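 further: 50 nL library stock added to about 25 µL; numbers are from one replicate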
# RN4220 kill: kills Staphylococcus aureus RN4220; S. aureus RN4220 growth, OD600, 16 h; inhibition, % (no concentration beside the values); 330,000 tested, 0.33% active;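 active means z-score of -3 or lower and OD600 up to 0.18 on both plates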;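 further: plate controls were untreated cells for no effect and reference antibiotic for full effect; stock transfer was 100 nL into about 80 µL; one replicate is shown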
# PrP 5UTR inh: inhibition of PrP 5' UTR reporter expression. cell-based PrP 5' UTR mRNA reporter, plate reader. inhibition, % (concentration not given with the values). 340,000 tested, 0.35% active. AID 488862;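 active means every replicate at 50% or more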;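 further: 0 = median of the neutral control wells; tested in H4 reporter cells; numbers are from one replicate; inactives centre near -14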
# ugtP null kill: kills S. aureus RN4220 lacking UgtP | S. aureus RN4220 ugtP deletion, OD600 growth, 16 h; some inactives read as strong as hits | growth inhibition, % (no concentration beside the values) | 330,000 tested, 0.54% active | AID 1259309;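 active means z-score under -3 and OD600 up to 0.15 on both plates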;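 further: plate controls were untreated wells for no effect and antibiotic for full effect; wells of about 80 µL received 100 nL stock; the first replicate is given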
# Mtb hypoxia rep: inhibitors of hypoxia-regulated fluorescent reporter in Mycobacterium tuberculosis; AID 1159583; fluorescence inhibition, % (no concentration beside the values); 300,000 tested, 0.1% active; M. tuberculosis hypoxia-regulated fluorescent reporter, fluorescence;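 active means 35 to 45% if threefold the growth effect, above 45% if 1.5-fold the growth effect; inactive means the rest, general growth blockers included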;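 further: wells of about 50 µL received 100 nL stock; 0% = vehicle wells and 100% = reference inhibitor wells; whole bacteria with a GFP reporter of the hypoxia response; strong numbers were not always called active; many hits fall short of the cut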
# Bead autofluor: counter-screen for toxin protease inhibitors: compound fluorescence; 360,000 tested, 3.1% active; fluorescence intensity (test concentration not listed); compound autofluorescence counterscreen, microsphere flow cytometry; active compounds read high;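 active means at least 3 SD above the mean of all compounds, about 16000 in these data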;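 further: 100 nL of 1 mM stock went into each well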
# Mtb hypoxia rep growth: further read-out of Mtb hypoxia rep, marked with its call; growth inhibition, %; measured here: M. tuberculosis growth (absorbance);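 0% = vehicle and 100% = reference antibiotic; read after six days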
# * marks the source's active call; other numbers are inactive results; x = not tested or not shown.
SMILES,BJeLR viability,RN4220 kill,PrP 5UTR inh,ugtP null kill,Mtb hypoxia rep,Mtb hypoxia rep growth,Bead autofluor
Cc1ccccc1NC(=O)COc1ccccc1C,6,6.0,-23,3,20,7,x
Cc1nn(C)c(Cl)c1CN1CCCC(CO)(Cc2ccccc2)C1 (stereo not given),9,3.0,-50,6,10,3,3586
COc1cc(C)ccc1OCC(=O)OCC(=O)c1cc(C)n(CC2CCCO2)c1C (stereo not given),x,2.7,-9,1,2,7,3453
COc1ccc2c(c1)c1nnc(SCC(=O)Nc3ccccc3F)nc1n2C,-16,2.9,-12,8,14,11,3410
COc1ccc(-c2cc(C)no2)cc1S(=O)(=O)N(C)Cc1ccco1,2,-0.7,-9,-5,-4,5,5915
COc1ccc(CCNC(=O)c2cc(-c3cc(C)ccc3O)n[nH]2)cc1OC,-5,14,-17,-8,-5,8,3138
O=C1c2ccccc2C(Nc2ccc(S(=O)(=O)N3CCOCC3)cc2)N1Cc1ccco1 (stereo not given),-3,16,-15,6,-6,8,5986
O=c1[nH]c2ccsc2c(=O)n1-c1ccc(F)cc1,-9,1.5,-4,0,5,6,5911
Cc1csc(NC(=O)Cc2c(F)cccc2Cl)n1,-4,x,-48,x,x,x,3718
O=C(c1cc2ccccc2oc1=O)N1CCN(C(=O)C2CCCO2)CC1 (stereo not given),-24,0.2,6,-2,-8,1,25648*
COc1cccc2c(=O)n(CC(=O)NCCc3ccccc3)ccc12,-1,-1.2,36,1,5,11,4047
CCCCN1CC(=O)N2C(c3ccc(Cl)cc3)C3C(=O)N(CC)C(=O)C3[C@]2(C)C1=O (stereo not given in full),x,3.3,x,7,18,4,x
COc1ccc(C(=O)NNC(=S)NC(=O)C(C)(C)C)cc1,18,36,-16,12,6,2,4282
O=C(Nc1ccc(N2CCOCC2)c(F)c1)c1ccncc1,7,1.9,-14,1,-4,-5,2976
CC1CN(C(=O)COC(=O)[C@@H]2CC(O)CN2S(=O)(=O)c2ccc3c(c2)OCCO3)CC(C)O1 (stereo not given in full),4,3.7,-26,7,14,10,2461
COc1ccc(C(CNC(=O)Cc2c(F)cccc2Cl)N2CCCCC2)cc1 (stereo not given),5,13,5,4,15,2,4354
COc1ccc(-c2onc(C)c2-c2ccccc2)c(O)c1,6,0.5,-12,0,x,x,3553
Cc1onc(-c2ccccc2)c1C(=O)N/N=C/c1cccc(O)c1,-5,x,-52,x,x,x,2541
CC(=O)c1ccc(OCc2cc(C(=O)N3CCCCC3c3cccnc3)no2)cc1 (stereo not given),-1,x,-45,x,x,x,5328
COc1ccc(CCC(=O)OCC(=O)Nc2c(C)n(C)n(-c3ccccc3)c2=O)cc1,x,2.0,-13,6,9,4,3543
O=C(COC(=O)c1n[nH]c2ccccc12)c1cc(F)ccc1F,-3,2.4,-19,4,-5,8,4260
CCOC(=O)COc1cccc2c(=O)n(CC(=O)N3CCCc4ccccc43)ccc12,22,-14,1,2,1,-2,4315
COc1ccc2[nH]c3ccc(OC)cc3c2c1,-7,5.5,-31,4,0,4,4069
CN(C)S(=O)(=O)c1cccc(C(=O)OCC(=O)N2CCCC2=O)c1,-4,1.1,-10,-1,5,-3,6278
COC(=O)c1ccc(NC(=O)CSc2nncn2-c2cccnc2)cc1,2,-1.7,-3,3,0,-1,3010

# The list continues.
SMILES,BJeLR viability,RN4220 kill,PrP 5UTR inh,ugtP null kill,Mtb hypoxia rep,Mtb hypoxia rep growth,Bead autofluor
Cc1ccc(C23CC4CC(CC(NC(=O)NN)(C4)C2)C3)cc1,0,1.2,-23,1,-2,-2,5549
O=C(c1cc[n+]([O-])cc1)N1CCCC(N2CCN(c3cccc(C(F)(F)F)c3)CC2)C1 (stereo not given),-3,-1.3,-5,1,-7,-3,5507
COc1cccc(C(O)c2nc3ccccc3n2C)c1 (stereo not given),-12,0.4,-16,-3,-3,14,3584
CC(C)CCN(C(=O)c1ccc(N2CCCC2=O)cc1)c1c(N)n(Cc2ccccc2)c(=O)[nH]c1=O,-9,2.0,-1,3,3,7,5334
COc1ccc(Nc2nc3nonc3nc2N2CCCCC2)cc1,-4,6.6,-6,11,19,10,4049
Cc1ccc(NC(=O)C(C)N2CCCC2)cc1Cl (stereo not given),-1,3.0,-13,7,9,6,2108
O=C(COC(=O)c1ccco1)c1ccc(F)cc1,-1,2.1,-5,4,5,15,3701
COc1cc2nc(Cl)nc(NCCO)c2cc1OC,-5,0.7,7,10,2,3,6258
CN(Cc1ccc(F)cc1)S(=O)(=O)c1nnc(NC(=O)c2ccccc2)s1,12,50,-17,48,-4,0,5901
O=C(CSc1ncnc2c1cnn2-c1ccc(Cl)cc1)NCc1ccc2c(c1)OCO2,-1,x,-30,x,x,x,8721
Cc1ccc2nc(Cl)c(C=NNc3ccc(C(=O)O)cc3)cc2c1,x,6.1,x,-1,2,-4,x
O=C(CCN1CCOCC1)c1ccc(Br)cc1,4,31,-1,18,5,11,4225
O=C(Nc1ccccn1)c1cc(-c2ccc(Cl)s2)nc2ccccc12,x,-4.2,-5,-8,12,5,8578
O=c1c2ccccc2nc2c3ccccc3c(Cl)nn12,4,5.6,x,2,11,-6,x
CSc1ccc(S(=O)(=O)Nc2c(C)n(C)n(-c3ccccc3)c2=O)cc1,7,5.8,-17,-1,16,11,3351
O=[N+]([O-])c1ccccc1CNC(Cc1ccccc1)c1ccccc1 (stereo not given),7,11,-23,40,10,8,7851
O=C(NN=Cc1cccc2cccnc12)[C@H]1C[C@@H]1c1ccccc1,x,2.3,x,-1,15,3,x
O=C(CSc1nnc2c(n1)[nH]c1ccc(F)cc12)NCc1ccc(F)cc1,-4,4.0,-21,7,-16,1,5893
O=[N+]([O-])c1ccc(N/N=C2\CC3CC=CC23)c([N+](=O)[O-])c1 (stereo not given),1,x,-23,x,x,x,3067
CC(C)c1ccccc1NC(=S)NCc1nc2ccccc2[nH]1,-2,1.2,-19,-7,0,2,4255
COc1ccc(OC)c(-n2c(SCC(=O)NCc3ccco3)nnc2-c2c[nH]c3ccccc23)c1,0,-17,-4,-10,3,10,6324
COc1cc2c3cc1Oc1cc(ccc1O)CC1c4c(cc(OC)c(O)c4Oc4ccc(cc4)CC3N(C)CC2)CCN1C (stereo not given),x,9.9,x,0,-3,3,x
COc1cccc2cc(C(=O)N3CCc4ccccc4C3)c(=O)oc12,-2,19,-28,3,-1,12,3355
COc1cc2nc(Nc3ccc(C)c(C)c3)nc(N)c2cc1OC,10,7.2,-19,-18,0,-5,4073
COc1cc(S(=O)(=O)NCCc2ccc3c(c2)OCO3)ccc1-n1cnnn1,10,2.5,-19,14,9,-1,6121

# Some of the entries so far, with tabs.
mol	BJeLR viability	RN4220 kill	PrP 5UTR inh	ugtP null kill	Mtb hypoxia rep	Mtb hypoxia rep growth	Bead autofluor
Cc1ccccc1NC(=O)COc1ccccc1C	6	6.0	-23	3	20	7	x
Cc1nn(C)c(Cl)c1CN1CCCC(CO)(Cc2ccccc2)C1 (stereo not given)	9	3.0	-50	6	10	3	3586
COc1cc(C)ccc1OCC(=O)OCC(=O)c1cc(C)n(CC2CCCO2)c1C (stereo not given)	x	2.7	-9	1	2	7	3453
COc1ccc2c(c1)c1nnc(SCC(=O)Nc3ccccc3F)nc1n2C	-16	2.9	-12	8	14	11	3410
COc1ccc(-c2cc(C)no2)cc1S(=O)(=O)N(C)Cc1ccco1	2	-0.7	-9	-5	-4	5	5915
COc1ccc(CCNC(=O)c2cc(-c3cc(C)ccc3O)n[nH]2)cc1OC	-5	14	-17	-8	-5	8	3138
O=C1c2ccccc2C(Nc2ccc(S(=O)(=O)N3CCOCC3)cc2)N1Cc1ccco1 (stereo not given)	-3	16	-15	6	-6	8	5986
O=c1[nH]c2ccsc2c(=O)n1-c1ccc(F)cc1	-9	1.5	-4	0	5	6	5911
Cc1csc(NC(=O)Cc2c(F)cccc2Cl)n1	-4	x	-48	x	x	x	3718
O=C(c1cc2ccccc2oc1=O)N1CCN(C(=O)C2CCCO2)CC1 (stereo not given)	-24	0.2	6	-2	-8	1	25648*
COc1cccc2c(=O)n(CC(=O)NCCc3ccccc3)ccc12	-1	-1.2	36	1	5	11	4047
CCCCN1CC(=O)N2C(c3ccc(Cl)cc3)C3C(=O)N(CC)C(=O)C3[C@]2(C)C1=O (stereo not given in full)	x	3.3	x	7	18	4	x
COc1ccc(C(=O)NNC(=S)NC(=O)C(C)(C)C)cc1	18	36	-16	12	6	2	4282
O=C(Nc1ccc(N2CCOCC2)c(F)c1)c1ccncc1	7	1.9	-14	1	-4	-5	2976

# The list continues.
SMILES,BJeLR viability,RN4220 kill,PrP 5UTR inh,ugtP null kill,Mtb hypoxia rep,Mtb hypoxia rep growth,Bead autofluor
Cc1cc(SCC(=O)OCC(=O)NCC2CCCO2)c(C)cc1Br (stereo not given),-2,2.0,-41,-2,8,6,4453
O=C(Cc1ccc(Br)c2ccccc12)N/N=C/c1ccccn1,3,x,-9,x,x,x,2295
COc1cc(/C=N/NC(=O)c2sc(N)c(C#N)c2C)cc(Br)c1O,-2,x,-17,x,x,x,2786
Cc1cc(C)cc(OCC(=O)O/N=C(\N)c2cccnc2)c1,-9,4.2,x,3,-6,-4,6666
c1cnc(SCCOc2ccc3c(c2)CCC3)nc1,2,33,-37,35,14,9,x
Cc1cc(NN=Cc2c(O)ccc3ccccc23)nc(-c2ccccc2O)n1,x,99*,x,98*,9,8,x
CC(Sc1ncnc2ccccc12)C(=O)Nc1ccc2c(c1)OCCO2 (stereo not given),11,2.0,-8,0,2,6,2067
COc1cccc(C2(O)CCN(CC(=O)NCC3CC3)CC2)c1,-3,1.6,-7,-2,3,16,4411
O=C(NN=Cc1ccco1)c1ccc2nc[nH]c2c1,x,3.1,x,13,9,3,x
CN1CCN(NC(=O)c2cccc(F)c2)CC1,-10,3.9,-84,-1,x,x,4834
Cn1c(=O)c2nc3ccccc3nc2n(C)c1=O,-1,4.0,-16,1,10,4,4402
COCCOc1ccc(C(F)(F)F)cc1N,4,2.5,4,8,3,-17,4043
COc1ccc2c(c1)c(C(=O)O)c(C)n2CC(C)C,3,7.5,-7,-1,14,21,12186
CC(C)c1nnc(NC(=O)CCC(=O)NCc2ccco2)s1,-2,-0.3,1,-2,-3,-21,4247
CN(C)c1ccc(/C=C(/C(=O)c2ccc(Cl)cc2Cl)n2cncn2)cc1,1,x,-9,x,x,x,3231
COC(=O)/C(=C\c1c(OC)cc(OC)cc1OC)C(=O)c1ccc2c(c1)OCO2,9,x,-22,x,x,x,2998
COc1ccc(N(C(=O)CNC(=O)c2ccco2)C(C(=O)NCC2CCCO2)c2ccccc2)c(OC)c1 (stereo not given),3,4.7,-5,10,4,-4,2891
CCOC(=O)c1cc(C(C)C)sc1NC(=O)COC(=O)c1nccnc1N,0,x,-18,x,x,x,3821
COc1ccc(NC(=O)CON=CC(=O)Nc2ccccc2C)c([N+](=O)[O-])c1,x,3.0,x,1,6,-2,x
CSc1nnc(CSCc2ccc(Cl)cc2Cl)n1-c1ccccc1,4,-1.1,-12,-19,4,5,12082
O=C(N/N=C/c1ccc2c(c1)OCO2)c1ccc(NS(=O)(=O)c2cccs2)cc1,-12,x,-28,x,x,x,4425
O=C(CN1C(=O)NC2(CCCCCC2)C1=O)Nc1ccc(Cl)c([N+](=O)[O-])c1,x,0.8,-19,-6,0,0,3115
CCN1CCN(S(=O)(=O)c2ccc(Cl)c(C(=O)NC3CC3)c2)CC1,x,3.3,-22,9,2,3,3933
COc1ccc2[nH]cc(CCNC(=O)CCC3CCCCC3)c2c1,-5,2.7,-17,0,1,4,4273
CCCCNS(=O)(=O)c1ccc2nc(SCC(=O)Nc3cccc(F)c3)[nH]c2c1,2,-1.6,-16,-11,3,-1,2597
CNC(=O)C(=O)Nc1cc2c3c(c1)C(C)C(=O)N3CCC2 (stereo not given),-12,-0.7,-1,-2,-2,-1,3908
CC(=O)c1cccc(NS(=O)(=O)c2ccc3c(c2)oc(=O)n3C)c1,4,-2.9,-11,-6,-5,-3,11967

# Screening data deposited in PubChem by several laboratories.
